Assay outcomes: PubChem, several laboratories
Mtb hypoxia rep: Mtb hypoxia fluorescent reporter inhibition; AID 1159583; 300,000 compounds, 0.1% hits; fluorescence inhibition, % (test concentration not listed); M. tuberculosis hypoxia-regulated fluorescent reporter, fluorescence;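 active = 35 to 45% if threefold the growth effect, above 45% if 1.5-fold the growth effect; inactive = the rest, general growth blockers included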;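 note: wells of about 50 µL received 100 nL stock; 0% = vehicle wells and 100% = reference inhibitor wells; whole bacteria with a GFP reporter of the hypoxia response; strong numbers were not always called active; many hits fall short of the cut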
RN4220 kill: S. aureus RN4220 growth inhibition; OD600, 16 h; inhibition, % (test concentration not listed); 330,000 compounds, 0.33% hits; AID 1259311;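 active = z-score of -3 or lower and OD600 up to 0.18 on both plates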;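 note: plate controls were untreated cells for no effect and reference antibiotic for full effect; stock transfer was 100 nL into about 80 µL; one replicate is shown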
ugtP null kill: kills S. aureus RN4220 lacking UgtP; S. aureus RN4220 ugtP deletion, OD600 growth, 16 h; some inactives read as strong as hits; growth inhibition, % (no concentration beside the values); 330,000 compounds, 0.54% hits; AID 1259309;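 active = z-score under -3 and OD600 up to 0.15 on both plates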;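 note: plate controls were untreated wells for no effect and antibiotic for full effect; wells of about 80 µL received 100 nL stock; the first replicate is given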
BJeLR lethal: kills HRASV12-expressing BJeLR cells | inhibition, % (concentration not given with the values) | 300,000 compounds, 0.17% hits | BJeLR (HRASV12) viability, CellTiter-Glo ATP luminescence, 48 h; reference of the scale not given here;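 active = replicate mean above 50%; inconclusive = above 50% but judged a plate artefact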;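 note: 50 nL library stock added to about 25 µL; numbers are from one replicate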
Bead autofluor: flagged as autofluorescent in microsphere protease counterscreen; AID 624483; 360,000 compounds, 3.1% hits; fluorescence intensity (test concentration not listed); compound autofluorescence counterscreen, microsphere flow cytometry; active compounds read high;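 active = at least 3 SD above the mean of all compounds, about 16000 in these data; inconclusive = too few beads counted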;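 note: 100 nL of 1 mM stock went into each well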
PrP UTR inh: inhibition of PrP 5' UTR reporter expression. cell-based PrP 5' UTR mRNA reporter, plate reader. inhibition, % (concentration not given with the values). 340,000 compounds, 0.35% hits. AID 488862;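 active = every replicate at 50% or more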;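 note: 0 = median of the neutral control wells; tested in H4 reporter cells; numbers are from one replicate; inactives centre near -14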
Mtb hypoxia rep growth: further read-out of Mtb hypoxia rep, marked with its call; growth inhibition, %; measured here: M. tuberculosis growth (absorbance);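 0% = vehicle and 100% = reference antibiotic; read after six days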
* marks the source's active call; other numbers are inactive results; ? = inconclusive; · = no result given.

entry	smiles	Mtb hypoxia rep	Mtb hypoxia rep growth	RN4220 kill	ugtP null kill
1	Cc1ccccc1C(=O)OC1C(Cc2ccccc2)NS(=O)(=O)C2CC3C=C[C@]12O3 (some centres not stated)	-2	4	9.6	14
2	Cc1ccccc1C(=O)Nn1cnc2ccccc2c1=O	3	2	7.0	6
3	CCN(CC)CCCN(C(=O)c1ccco1)c1nc(-c2ccc(C)cc2)cs1	5	7	-5.2	-7
4	Cc1ccc(N(CC(=O)NCc2ccco2)C(=O)CCC(=O)Nc2ccccn2)cc1C	·	·	-0.5	5
5	CN(CCc1ccccn1)C(=O)Nc1cc(Cl)cc(Cl)c1	-8	-2	-1.2	-16
6	Cc1ccc(C(C)C)c(OCC(=O)NNC(=O)CC2OC(=O)c3ccccc32)c1 (configuration not stated)	3	-11	1.6	6
7	COc1cc(-c2cc(C(=O)Nc3cc(S(=O)(=O)N4CCOCC4)ccc3C)c3ccccc3n2)cc(OC)c1OC	-1	-4	3.5	5
8	O=C(NN=C(CC(=O)c1cccs1)C(F)(F)F)c1cccnc1	12	0	7.0	5

entry	BJeLR lethal	Bead autofluor	PrP UTR inh
1	·	·	·
2	-5	2643	-44
3	-1	5837	-22
4	-4	2774	-13
5	-3	6084	-32
6	13	5272	-37
7	·	5214	-23
8	·	·	·

Brought forward from above: two compounds, then new ones.
entry	smiles	Mtb hypoxia rep	Mtb hypoxia rep growth	RN4220 kill	ugtP null kill
7	COc1cc(-c2cc(C(=O)Nc3cc(S(=O)(=O)N4CCOCC4)ccc3C)c3ccccc3n2)cc(OC)c1OC	-1	-4	3.5	5
8	O=C(NN=C(CC(=O)c1cccs1)C(F)(F)F)c1cccnc1	12	0	7.0	5
9	CCc1ccc(N2C(=O)CC(c3ccc(F)cc3)C3=C2COC3=O)cc1 (configuration not stated)	11	0	8.0	2
10	Cc1ccc2c(c1)sc(=NC(=O)c1cccs1)n2C	·	·	9.4	5
11	CC(C)(O)[C@H](O)Cc1cc2ccc(=O)oc2cc1O[C@@H]1O[C@H](CO)[C@@H](O)[C@H](O)[C@H]1O	7	6	-10	-6
12	CCOC(=O)N1CCC(NC(=O)C2CCN(S(=O)(=O)c3cccs3)CC2)CC1	0	7	5.8	-9
13	O=C1CCc2cc(S(=O)(=O)N3CCN(c4cccc(C(F)(F)F)c4)CC3)ccc2N1	5	7	0.8	9
14	COc1cccc2cc(-c3cc(=O)oc4ccc(OC(=O)N(C)C)cc34)oc12	3	2	6.7	-9
15	CN(c1cccc(NC(=O)CCSc2ccccc2)c1)S(C)(=O)=O	12	1	4.0	12
16	O=C(CSc1nc2ccccc2o1)N1CCCC1	·	·	6.8	1

entry	BJeLR lethal	Bead autofluor	PrP UTR inh
7	·	5214	-23
8	·	·	·
9	-21	4198	-10
10	16	3329	65*
11	·	3988	-8
12	1	20126*	-26
13	-3	10745	-14
14	9	5596	6
15	8	11180	-6
16	2	2334	-12

More results follow.
entry	smiles	Mtb hypoxia rep	Mtb hypoxia rep growth	RN4220 kill	ugtP null kill
17	C[C@H]1[C@H](c2ccccc2)C[C@@H](C(=O)O)C1(C)C	·	·	·	·
18	COC(=O)CCCC1=CC2=CC(=O)C(C)(OC(=O)c3cccs3)C(=O)C2=CN1C1CC1 (configuration not stated)	21	9	5.4	0
19	COc1ccc(-c2nc(N)nc(C(F)(F)F)c2-c2cscn2)c(O)c1	5	9	1.3	5
20	CC[C@]12c3[nH]c4ccc(OC)cc4c3CCN1C(=O)C(CC(=O)NCCC1=CCCCC1)C[C@@H]2C(=O)N1CCN(C(=O)C2CC2)CC1 (some centres not stated)	-11	1	2.8	-5
21	O=C(Nc1ccc(S(=O)(=O)N2CCOCC2)cc1)c1cccnc1	-3	4	2.8	1
22	CCOc1ccc2nc(N(Cc3ccccc3)C(=O)CCNC(C)=O)sc2c1	7	3	0.4	10
23	CCOCCn1c(CN2CCN(c3cccc(Cl)c3)CC2)nc2c1c(=O)n(C)c(=O)n2C	4	0	5.5	6
24	COc1ccc2cc3cc(C(=O)NCCC(C)C)oc3nc2c1	1	0	0.1	7

entry	BJeLR lethal	Bead autofluor	PrP UTR inh
17	3	4018	-6
18	-12	3824	-20
19	-6	4766	-8
20	·	3546	-13
21	-4	4502	-17
22	4	4850	-23
23	-4	5641	-11
24	-17	3736	-16

Next section.
entry	smiles	Mtb hypoxia rep	Mtb hypoxia rep growth	RN4220 kill	ugtP null kill
25	COc1cccc(/C=N/NC(=O)C(=O)Nc2ccccc2OC(F)(F)C(F)F)c1	·	·	·	·
26	Cc1[nH]nc2c1C(c1ccc(-c3ccccc3C#N)o1)C(C#N)=C(N)O2 (configuration not stated)	9	1	-3.1	-1
27	NC(=O)COC(=O)c1ccc(Cl)c(S(=O)(=O)N2CCN(c3ccc(F)cc3)CC2)c1	-3	6	-3.3	17
28	O=C(N/N=C\c1ccc(-c2cccc(Cl)c2)o1)C(=O)NC1CCCC1	·	·	·	·
29	O=c1c2ccccc2nnn1CSc1nc2ccccc2c(=O)n1Cc1ccco1	8	6	6.3	5
30	CCCC1C2C(=O)N(c3ccccc3OC)C(=O)C2ON1c1ccccc1 (configuration not stated)	1	10	-5.4	-3
31	CCOc1ccc(NC(=O)CN(C)C(=O)c2cn(-c3ccccc3)nc2-c2cccs2)cc1OCC	-1	-6	1.9	-2
32	CCOC(=O)N1CCC(NC(=O)c2ccc3c(c2)sc2nc(-c4cccc(OC)c4)cn23)CC1	-5	18	-1.2	-19

entry	BJeLR lethal	Bead autofluor	PrP UTR inh
25	-4	2187	-18
26	-2	8963	-17
27	-1	4566	-21
28	6	4367	-60
29	2	6421	-15
30	-7	4918	-15
31	0	5762	-8
32	-1	·	·

Further records.
entry	smiles	Mtb hypoxia rep	Mtb hypoxia rep growth	RN4220 kill	ugtP null kill
33	COc1ccc(Cl)cc1C(=O)NNC(=O)COC(=O)c1cccs1	3	1	2.8	6
34	CC(=O)NCCC1CCN(C(=O)c2cc(COc3ccc(C)nc3)on2)CC1	7	0	1.1	2
35	Cc1cc(-c2ccc(S(=O)(=O)NCc3ccc(F)cc3)cc2)on1	2	0	3.2	-1
36	CC1CCN(S(=O)(=O)c2ccc(NC(=O)CN3CCCCCC3)cc2)CC1	-6	7	-0.6	5
37	O=c1c(-c2ccccc2)c(-c2ccccc2)oc2cc(O)cc(O)c12	12	9	-6.9	15
38	CCOc1ccc(S(=O)(=O)N(CC(=O)NC2CCCC2)c2ccc(F)cc2)cc1	-5	-1	0.8	2
39	O=C(CN1CCN(c2nc(-c3ccc(F)cc3)cs2)CC1)NCc1ccc2c(c1)OCO2	8	4	-4.9	3
40	O=C(NCC1CCCO1)c1nc(Cn2ccc([N+](=O)[O-])n2)no1 (configuration not stated)	-5	-4	4.7	0

entry	BJeLR lethal	Bead autofluor	PrP UTR inh
33	·	6429	-12
34	0	5532	-3
35	7	5214	-19
36	1	5961	-2
37	1	2875	-16
38	0	?	1
39	10	23682*	-20
40	9	3652	-10

(list continues)
entry	smiles	Mtb hypoxia rep	Mtb hypoxia rep growth	RN4220 kill	ugtP null kill
41	COC(=O)C(C)Sc1nc2c(c(=O)n(C)c(=O)n2C)n1Cc1cccc(C)c1 (configuration not stated)	15	6	-6.6	-1
42	CCCCN1CC(Cc2ccccc2)C(CC(=O)NCc2ccc(OC)cc2)C1=O (configuration not stated)	-4	9	1.8	-17
43	CC1CC(c2ccccc2)n2nc(N3C(=O)c4ccccc4C3=O)nc2N1 (configuration not stated)	·	·	-1.4	5
44	Cc1ccccc1-n1cc(C(=O)c2cc(Cl)ccc2O)cc(C#N)c1=O	15	8	1.6	-1
45	NS(=O)(=O)c1ccc(CCNC(=O)CCc2nc3sc4c(c3c(=O)[nH]2)CCCC4)cc1	-1	0	2.1	4
46	O=C(O)CCCNS(=O)(=O)c1ccc(F)cc1	10	9	5.8	-3
47	COc1ccc(-n2nc(C(=O)NCC(=O)NCC3COc4ccccc4O3)c3ccccc3c2=O)cc1 (configuration not stated)	16	-5	3.4	6
48	COc1ccc(-c2noc(CN(C)Cc3ccc(C)o3)n2)cc1	-6	-1	5.4	17

entry	BJeLR lethal	Bead autofluor	PrP UTR inh
41	5	2741	-12
42	·	·	·
43	-5	4726	-18
44	0	2839	-21
45	2	8287	-9
46	-3	24742*	-16
47	1	3075	-6
48	-6	4503	-11

(more compounds)
entry	smiles	Mtb hypoxia rep	Mtb hypoxia rep growth	RN4220 kill	ugtP null kill
49	Cc1cc(NC(=O)c2ccc(N3CCCC3)c([N+](=O)[O-])c2)no1	7	3	2.4	-5
50	CCOC(=O)N1CCC(N2CCCC(C(=O)c3ccc4cc(OC)ccc4c3)C2)CC1 (configuration not stated)	-2	-3	-2.1	13
51	CC(C)n1nc(C(=O)OCn2nnc3ccccc3c2=O)c2ccccc2c1=O	10	5	4.5	12
52	O=C(Cn1nc(C(=O)O)c2ccccc2c1=O)c1cc(F)ccc1F	3	9	4.3	2
53	CCC(C)Nc1nc2c(c(=O)n(C)c(=O)n2C)n1Cc1ccc(Cl)cc1 (configuration not stated)	-3	11	-2.9	2
54	CC1CC(C)CN(C(=O)c2ccc3ncsc3c2)C1 (configuration not stated)	14	4	3.6	8
55	C=C1CCN([C@@H](CC(C)C)C(=O)O)S(=O)(=O)c2ccccc21	·	·	·	·
56	Cc1ccccc1CS(=O)(=O)Cc1ccc(C(=O)NCc2ccco2)o1	12	-1	4.2	12

entry	BJeLR lethal	Bead autofluor	PrP UTR inh
49	3	2405	-8
50	·	2570	-29
51	0	2443	-15
52	14	4424	3
53	-3	5490	-8
54	·	2944	-20
55	10	5135	-7
56	-7	10412	-35

(continued)
entry	smiles	Mtb hypoxia rep	Mtb hypoxia rep growth	RN4220 kill	ugtP null kill
57	COC(=O)c1sccc1NC(=O)CCC1CCCCC1	11	5	3.1	48
58	C[C@H](CO)N1C[C@H](C)[C@@H](CN(C)C(=O)Nc2ccc3c(c2)OCO3)Oc2ccc(NC(=O)NC3CCCCC3)cc2C1=O	4	5	-11	-2
59	CCOc1ccc(NC(=O)CSc2nc3c([nH]c4ccccc43)c(=O)n2C)cc1	4	-4	5.4	5
60	O=C(Nc1cccc(C(F)(F)F)c1)c1cccnc1NCCO	-2	3	1.5	-2
61	OC(C#CCN1CCOCC1)(c1ccccc1)C1CC1 (configuration not stated)	2	1	7.7	3
62	CCCNC(=S)Nc1ccc(Cl)cc1C	15	13	2.4	13
63	CC(CN1CCOCC1)(NS(=O)(=O)c1ccccc1)c1ccccc1 (configuration not stated)	7	4	15	2

entry	BJeLR lethal	Bead autofluor	PrP UTR inh
57	3	4038	-29
58	·	4023	-16
59	-4	5146	-15
60	4	4164	-7
61	-8	9807	-33
62	-14	2521	-33
63	-9	7802	5

Gathered by group, the compounds so far containing a furan ring, fused or not
entry	smiles	Mtb hypoxia rep	Mtb hypoxia rep growth	RN4220 kill	ugtP null kill
3	CCN(CC)CCCN(C(=O)c1ccco1)c1nc(-c2ccc(C)cc2)cs1	5	7	-5.2	-7
4	Cc1ccc(N(CC(=O)NCc2ccco2)C(=O)CCC(=O)Nc2ccccn2)cc1C	·	·	-0.5	5
14	COc1cccc2cc(-c3cc(=O)oc4ccc(OC(=O)N(C)C)cc34)oc12	3	2	6.7	-9
24	COc1ccc2cc3cc(C(=O)NCCC(C)C)oc3nc2c1	1	0	0.1	7
26	Cc1[nH]nc2c1C(c1ccc(-c3ccccc3C#N)o1)C(C#N)=C(N)O2 (configuration not stated)	9	1	-3.1	-1
28	O=C(N/N=C\c1ccc(-c2cccc(Cl)c2)o1)C(=O)NC1CCCC1	·	·	·	·
29	O=c1c2ccccc2nnn1CSc1nc2ccccc2c(=O)n1Cc1ccco1	8	6	6.3	5
48	COc1ccc(-c2noc(CN(C)Cc3ccc(C)o3)n2)cc1	-6	-1	5.4	17
56	Cc1ccccc1CS(=O)(=O)Cc1ccc(C(=O)NCc2ccco2)o1	12	-1	4.2	12

entry	BJeLR lethal	Bead autofluor	PrP UTR inh
3	-1	5837	-22
4	-4	2774	-13
14	9	5596	6
24	-17	3736	-16
26	-2	8963	-17
28	6	4367	-60
29	2	6421	-15
48	-6	4503	-11
56	-7	10412	-35
